TRPML1 blocker = qHTS for Inhibitors of the Human Mucolipin Transient Receptor Potential 1 (TRPML1) | Mucolipin-1 (Homo sapiens), Q9GZU1 | TRPML1-inducible cells, Ca2+ dye fluorescence, FDSS; active compounds read low; inhibition of EC80 agonist-evoked calcium signal | activity change, negative = inhibition, % (test concentration not listed) | 0.02% of 390,000 active | AID 624415, 2012; in the data active means activity change below about -50%; inconclusive means about -30% to -50%; inactive means above about -30%;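 further: stimulus is agonist 54-4 at its EC80 concentration; on the % scale 0 is the no-effect control and ±100 the full control effect; compound concentration not given in the record; the text of the record puts the active cut at -80%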
Target sequence (Q9GZU1 whole entry, looked up): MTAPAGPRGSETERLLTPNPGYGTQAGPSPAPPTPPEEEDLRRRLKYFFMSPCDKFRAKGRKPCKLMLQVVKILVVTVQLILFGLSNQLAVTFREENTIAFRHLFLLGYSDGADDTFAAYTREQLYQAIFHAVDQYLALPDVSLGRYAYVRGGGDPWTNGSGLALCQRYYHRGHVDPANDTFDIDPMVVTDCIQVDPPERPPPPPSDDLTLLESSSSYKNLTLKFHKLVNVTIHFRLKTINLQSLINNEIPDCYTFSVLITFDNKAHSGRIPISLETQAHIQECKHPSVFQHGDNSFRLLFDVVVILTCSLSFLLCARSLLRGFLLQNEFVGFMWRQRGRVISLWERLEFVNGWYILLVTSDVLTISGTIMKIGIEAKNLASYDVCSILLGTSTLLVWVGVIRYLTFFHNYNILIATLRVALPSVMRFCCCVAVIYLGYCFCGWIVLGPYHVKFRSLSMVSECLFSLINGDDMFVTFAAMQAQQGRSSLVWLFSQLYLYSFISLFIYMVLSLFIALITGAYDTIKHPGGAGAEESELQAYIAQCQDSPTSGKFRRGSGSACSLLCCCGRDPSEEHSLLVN
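TRPML1-DL cells, Tet-induced overnight (~16 h, 37 °C) at 1,500 cells/well, were loaded with Ca8 no-wash dye plus quencher for 45-90 min at room temperature. Compounds were pinned during FDSS kinetic reading; agonist 54-4 at EC80 (4 uM final) then added.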
D2 PAM = Beta-Arrestin HTS for Positive Allosteric Modulators of the Human D2 Dopamine Receptor: Potentiators; DiscoveRx D2 beta-arrestin cells, luminescence, 90 min; 100% = 57 uM dopamine signal; AID 624464, 2012; 0.23% of 360,000 active; D(2) dopamine receptor (Homo sapiens), P14416; potentiation, % (test concentration not listed); active = potentiation of 50% or more; inconclusive = 30% to 50%; inactive = 30% or less;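 further: compound concentration not given in the record; tested on top of an EC20 dose of dopamine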
Target sequence (P14416 whole entry, looked up): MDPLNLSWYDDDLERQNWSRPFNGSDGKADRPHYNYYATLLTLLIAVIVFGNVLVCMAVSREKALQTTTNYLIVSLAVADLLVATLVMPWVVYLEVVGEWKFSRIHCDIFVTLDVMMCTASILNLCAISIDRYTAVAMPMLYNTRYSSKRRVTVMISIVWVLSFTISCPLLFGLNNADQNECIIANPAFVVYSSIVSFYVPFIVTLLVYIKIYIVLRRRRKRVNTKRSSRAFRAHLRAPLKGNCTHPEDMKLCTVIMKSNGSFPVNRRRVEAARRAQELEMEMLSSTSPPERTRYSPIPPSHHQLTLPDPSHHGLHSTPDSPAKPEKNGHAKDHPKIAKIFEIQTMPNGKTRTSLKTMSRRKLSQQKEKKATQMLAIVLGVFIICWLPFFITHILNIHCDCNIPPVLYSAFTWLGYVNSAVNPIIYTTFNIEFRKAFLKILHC
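D2 cells co-treated with compound plus 50 nM dopamine (EC20) for 90 min at 37 deg C to detect potentiation. Beta-arrestin recruitment was read as enzyme-fragment luminescence after 1 h at ambient temperature. Full response was set by 57 uM dopamine.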
TRPV1 PAM = HTS Assay for Compounds that Act as Potentiators of the Vanilloid Receptor 1. Transient receptor potential cation channel subfamily V member 1 (Homo sapiens), Q8NER1. TRPV1-expressing cells, Fluo-8 calcium influx, capsaicin EC20 potentiation; host cell line not named in the record; control for the full effect not named in the record. potentiation, % at 8.33 µM. 0.02% of 320,000 active; active means potentiation above 80%; inconclusive means 30% to 80%; inactive means below 30%; further: 0% is about no effect
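Cells expressing TRPV1 were dye-loaded with Fluo-8 and read kinetically: 10 s baseline, 3 min after compound (agonist portion), then 2 min after EC20 capsaicin (allosteric enhancer portion). Calcium-bound dye fluorescence at 480/520 nm.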
CtBP-E1A blk = qHTS Assay for Inhibitors of the CtBP/E1A Interaction; 0.49% of 340,000 active; CtBP / adenovirus E1A interaction (AlphaScreen); AlphaScreen GST-E1A/His-CtBP binding, 1536-well; active compounds read low; control for the full effect not named in the record; AID 651724, 2012; activity change, % (no concentration beside the values); in the data active means activity change below about -65%; inconclusive means about -30% to -65%; inactive means above about -30%; further: on the % scale 0 is the no-effect control and ±100 the full control effect
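Protein mix (5X: 125 nM each GST-E1A, His-CtBP) was incubated with pinned compound 2 h at 37 deg C in dark, in 50 mM Tris pH 8.0 buffer with 300 mM NaCl. Glutathione donor and nickel acceptor beads followed; AlphaScreen signal read after 1 h.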
TRPML1 agonist = qHTS for Agonists of the Human Mucolipin Transient Receptor Potential 1 (TRPML1) | Mucolipin-1 (Homo sapiens), Q9GZU1 | TRPML1-expressing cells, Ca2+ dye fluorescence, FDSS; host cell line not named in the record; reference of the full effect not given here | activation, % (concentration not given with the values) | 0.12% of 410,000 active | AID 624414, 2012; in the data active = activation above about 50%; inconclusive = about 30% to 50%; inactive = below about 30%; further: 0% is about no effect; the text of the record puts the active cut at 80%
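Agonist activity was taken from a 110 s kinetic Ca2+ dye read on the FDSS after pinning compounds onto TRPML1-DL cells. The cells were seeded at 1,500/well with Tet inducer, incubated about 16 h, then dye-loaded at room temperature.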
Six1-Eya2 inh = qHTS Assay for Inhibitors of the Six1/Eya2 Interaction; 0.56% of 360,000 active; AlphaScreen GST-Six1/His-Eya2 binding, biochemical; active compounds read low; control for the full effect not named in the record; activity change, % (no concentration beside the values); AID 651725, 2012; in the data active = activity change below about -65%; inconclusive = about -30% to -65%; inactive = above about -30%; further: on the % scale 0 is the no-effect control and ±100 the full control effect
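AlphaScreen luminescence read after one hour at 37 °C in darkness. Pin-transferred compounds met GST-Six1 and His-Eya2 protein (5X stock 250 nM/500 nM) plus glutathione donor and Ni-chelate acceptor beads (5X, 50 ug/mL).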
Starred values were filed as active, the others as inactive; ? = inconclusive; . = not tested or not shown; & = joins results of further samples.

Values run as follows: TRPML1 blocker	D2 PAM	TRPV1 PAM	CtBP-E1A blk	TRPML1 agonist	Six1-Eya2 inh
CCNC(=S)NNC(=O)CCn1c2ccccc2c2ccccc21
    -13.0	-28.5	-1.4	3.5	0.5	-2.7
Cc1ccc(NC(=O)CNC(=O)c2sc3ccccc3c2Cl)nc1
    7.7	-9.1	-0.9	4.8	0.5	-1.1
Cc1ccc(CNC(=O)[C@@H](NC(=O)C2CCN(C(=O)[C@@H](N)CC(C)C)CC2)C(C)C)cc1
    .	-19.4	1.7	5.6	.	5.8
COc1ccc(-c2nc(N)n(C(=O)c3ccccc3Cl)n2)cc1
    -11.2	-18.7	-0.5	-12.1	0.0	-0.7
COc1cccc(-c2oc3c(c2C(=O)OCCN2CCCCC2)C(O)CCC3)c1 (configuration not stated)
    .	.	.	-0.4	-0.2	-4.8
CC[C@H](C)[C@@H](C(=O)N1CCNCC1)n1cc([C@@H](N)CC(C)C)nn1
    -0.5	-4.7	-6.8	-3.2	-0.8	-5.1
COc1ccc(COC(=O)c2cccc(S(=O)(=O)N3CCN(C(C)=O)CC3)c2)cc1
    16.9	11.0	22.1	-17.1	0.2	-7.5
CCc1c(O)nc(SCC(=O)Nc2ccccc2)n(C(C)CC)c1=O (configuration not stated)
    -9.2	-14.8	-6.5	-8.6	0.4	-1.8
CCOc1ccc(CN2CCN(C(=O)c3cccc4ccccc34)CC2)cc1
    -1.1	-2.0	-3.3	-11.9	0.7	-5.6
CSCc1c(C(=O)Nc2ccc(N3CCOCC3)cc2)oc2ccccc12
    -13.6	-9.7	-33.0	3.0	0.6	-1.6
CSC1=N/C(=C\c2ccccc2F)C(=O)S1
    0.4	-3.7	4.9	8.6	-0.3	7.0
COc1ccc(OCC(CO)N2CCN(c3ccccc3)CC2)cc1 (configuration not stated)
    -2.4	7.1	.	-1.6	-0.7	0.7
O=S(=O)(c1ccc(NC(=S)NCCc2ccccc2)cc1)N1CCOCC1
    -4.9	10.1	-8.5	-18.4	-0.1	-10.3
COc1ccc(CNC(=O)c2cc(-c3cccs3)on2)cc1
    -4.2	-7.1	6.8	5.9	-0.3	-0.5
CCOC(=O)C(Cc1ccccc1)(Cc1ccccc1)C(C)=O
    18.1	-4.1	2.1	45.2	-0.2	41.9
Cc1cc(C)nc(N/N=C/c2c[nH]c3ccccc23)n1
    5.8	1.7	9.9	-4.3	0.2	-5.4
O=C(CSc1ccccc1C(=O)O)NCc1ccco1
    -27.2	9.7	-3.7	1.2	-0.4	-0.3
CS(=O)(=O)Nc1ccc(C2=NN(S(=O)(=O)c3ccc(F)cc3)C(c3ccco3)C2)cc1 (configuration not stated)
    -0.4	-2.2	3.7	-4.0	0.1	-6.2
Cc1sc2c(c1C)C(=O)/C(=C\Nc1ccncc1)S(=O)(=O)N2C
    -27.1	0.8	1.5	1.3	0.5	-5.2
COc1ccc(NC(=O)CSCC(=O)Nc2ccc(S(=O)(=O)N3CCOCC3)cc2)cc1
    2.1	0.4	16.3	2.6	-0.6	-1.6
COc1ccc(CN(C)CC(=O)Nc2ccccc2C(=O)NC2CC2)cc1F
    5.1	-20.1	.	-1.9	1.9	-3.1
COc1ccc(Br)c(/C=N/NC(=O)COc2ccc(-c3ccccc3)cc2)c1
    -7.3	-16.1	13.8	0.0	4.0	-1.4
COC(=O)N/N=C/c1cc(C)n(-c2ccccc2)c1C
    25.4	-10.4	-0.6	.	0.9	-2.9
COc1cc(O)c2c(=O)cc(-c3ccccc3)oc2c1
    .	-22.4	17.9	-19.5	.	4.7
Cc1ccc(C)n1-c1nc(=S)[nH][nH]1
    6.0	2.6	1.7	-2.6	0.1	-3.9
COc1ccc(C(=O)N/N=C/c2ccc(SC)cc2)cc1
    -0.2	-18.9	-8.9	-6.7	2.1	-5.1
N#CCC(=O)Nc1ccc(C(=O)NCC(c2ccco2)N2CCCCC2)cc1 (configuration not stated)
    19.5	-4.9	9.7	-16.0	3.5	1.4
Cc1nc(C)n(CC(O)COc2ccc3cc(Br)ccc3c2)n1 (configuration not stated)
    25.5	6.6	1.6	-1.0	1.6	1.8
COc1ccc(C(O)c2ncc(-c3ccccc3F)[nH]2)cc1 (configuration not stated)
    .	-15.4	.	-10.3	-1.3	-5.1
CN(CC(=O)Nc1ccc(N2CCOCC2)cc1)C(=O)c1cc(S(=O)(=O)N(C)C)ccc1Cl
    -19.1	-8.4	4.4	1.3	-0.1	7.6
COc1ccccc1OCCCn1c(C)c(C#N)c2ccccc21
    5.0	-9.4	-6.6	9.5	-0.6	5.6
Nc1cccc2c(=O)[nH][nH]c(=O)c12
    95.0	0.4	.	5.7	0.7	-3.7
OCCN(CCO)c1nc2ccccc2[nH]1
    22.1	-0.2	7.9	-18.4	1.0	0.9
NC(=O)c1cc(S(=O)(=O)N2CCN(c3ccc([N+](=O)[O-])cc3)CC2)cs1
    2.5	-10.1	-7.0	-10.0	-0.6	-12.2
C=C(Br)CN1CCN(CC(=C)Br)CC1
    -2.6	21.1	9.5	0.8	-0.7	-0.3
C=CCn1c(SCC(=O)c2ccc(CNC(C)=O)o2)nc2scc(C3CC3)c2c1=O
    15.5	-12.8	-9.1	-5.2	2.4	-14.4
CC1CCC2(CC1)NC(=O)N(NC(=O)CCc1c[nH]c3ccccc13)C2=O (configuration not stated)
    -1.6	-11.1	-2.3	3.6	0.2	-10.3
CCN(CC)C(=O)c1csc(Nc2ccc(C)cc2)n1
    -17.0	-7.4	-4.2	-2.9	-1.3	-3.3
O=C1C(Cc2ccccc2)Nc2ncnc(N3CCN(c4ccccc4)CC3)c2N1Cc1ccc(Br)cc1 (configuration not stated)
    -6.0&-7.2	-43.6&-25.4	.	-27.4&-11.7	0.1&-0.3	-28.4&-22.0
Cc1ccc(NC(=O)CN2CCCCC2)c2c1CC(C)(C)O2
    16.3	-8.0	-17.0	.	1.3	7.3
CCN(C1CCCCC1)S(=O)(=O)CCNC(=O)c1ccc2c(c1)OCO2
    1.4	-1.4	0.0	4.8	-0.1	-4.8
Cc1nccc(-c2cc(-c3ccc(Cl)cc3Cl)no2)n1
    9.3	-3.3	.	-1.3	-0.4	3.5
Cc1cc(C)c2c(=O)cc(C(F)(F)F)oc2n1
    -1.5	-3.1	-3.4	.	0.2	4.5
CCn1c(=O)c2sccc2n(Cc2cccc(C)c2)c1=O
    6.4	-0.4	11.7	-0.2	1.1	-3.7
COc1cc(/C=N/NC(=O)c2ccc(Cl)cc2)ccc1OCC(=O)N1CC(C)OC(C)C1 (configuration not stated)
    7.4	-4.2	3.9	-5.8	-0.8	6.5
CC1CN(C(=O)CCC(=O)NCc2ccccn2)c2ccccc2O1 (configuration not stated)
    17.7	-0.6	-4.6	9.3	-0.2	5.6
Cc1ccc(S(=O)(=O)NC2CCCC2)cc1C
    -15.2	5.8	9.1	6.1	-0.5	0.9
CCC(C)(C)c1ccc(OCCCC[n+]2ccccc2)c(C(C)(C)CC)c1
    -7.2	-3.9	-17.5	-2.4	0.8	7.5
O=C(CO/N=C/c1ccccc1)N1c2ccccc2Oc2ccccc21
    1.1	?	3.6	3.1	4.1	3.1
CCCC[C@H]1COCCS(=O)(=O)N1Cc1cccc(F)c1
    -20.7	-2.8	-14.5	0.0	0.7&-0.9	17.7
CCCCCNC(=O)Cn1c(=O)c2c(ncn2CC(C)C)n(Cc2ccccc2)c1=O
    4.7	-3.7	-2.2	0.2	0.7	11.9
CC(=O)Oc1ccc2cc(-c3nc4ccccc4n3C)c(=O)oc2c1
    1.6	14.9	-4.1	10.7	2.6	-1.5
COc1cnc(-c2cccc(C(F)(F)F)c2)[nH]c1=O
    7.8	-4.5	2.1	-8.3	1.0	1.3
CCN(CCCNC(=O)COc1cc(=O)n(CC)c2ccccc12)Cc1ccccc1
    16.4	-13.3	6.0	-1.1	-0.5	-0.4
Cc1cccc(NS(=O)(=O)c2ccc3c(c2)CCC(=O)N3)c1
    38.6	-2.3	2.8	0.0	0.4	4.9
Nc1ncnc2nn(C3OC(CO)C(O)C3O)nc12 (configuration not stated)
    22.5	-1.9	.	0.2	0.0	1.3

Ordered by SMILES length (ascending): some entries from above.
Values run as follows: TRPML1 blocker	D2 PAM	TRPV1 PAM	CtBP-E1A blk	TRPML1 agonist	Six1-Eya2 inh
Cc1nccc(-c2cc(-c3ccc(Cl)cc3Cl)no2)n1
    9.3	-3.3	.	-1.3	-0.4	3.5
CC(=O)Oc1ccc2cc(-c3nc4ccccc4n3C)c(=O)oc2c1
    1.6	14.9	-4.1	10.7	2.6	-1.5
CCN(CCCNC(=O)COc1cc(=O)n(CC)c2ccccc12)Cc1ccccc1
    16.4	-13.3	6.0	-1.1	-0.5	-0.4

10 entries from above, sorted by SMILES length, falling:
Values run as follows: TRPML1 blocker	D2 PAM	TRPV1 PAM	CtBP-E1A blk	TRPML1 agonist	Six1-Eya2 inh
COc1cc(/C=N/NC(=O)c2ccc(Cl)cc2)ccc1OCC(=O)N1CC(C)OC(C)C1 (configuration not stated)
    7.4	-4.2	3.9	-5.8	-0.8	6.5
CCCCCNC(=O)Cn1c(=O)c2c(ncn2CC(C)C)n(Cc2ccccc2)c1=O
    4.7	-3.7	-2.2	0.2	0.7	11.9
CCN(CCCNC(=O)COc1cc(=O)n(CC)c2ccccc12)Cc1ccccc1
    16.4	-13.3	6.0	-1.1	-0.5	-0.4
CCC(C)(C)c1ccc(OCCCC[n+]2ccccc2)c(C(C)(C)CC)c1
    -7.2	-3.9	-17.5	-2.4	0.8	7.5
CCN(C1CCCCC1)S(=O)(=O)CCNC(=O)c1ccc2c(c1)OCO2
    1.4	-1.4	0.0	4.8	-0.1	-4.8
Cc1cccc(NS(=O)(=O)c2ccc3c(c2)CCC(=O)N3)c1
    38.6	-2.3	2.8	0.0	0.4	4.9
O=C(CO/N=C/c1ccccc1)N1c2ccccc2Oc2ccccc21
    1.1	?	3.6	3.1	4.1	3.1
COc1cnc(-c2cccc(C(F)(F)F)c2)[nH]c1=O
    7.8	-4.5	2.1	-8.3	1.0	1.3
Cc1cc(C)c2c(=O)cc(C(F)(F)F)oc2n1
    -1.5	-3.1	-3.4	.	0.2	4.5
Cc1ccc(S(=O)(=O)NC2CCCC2)cc1C
    -15.2	5.8	9.1	6.1	-0.5	0.9

Outcome played no part in choosing rows. About 0.95% of those tested had a hit in this group.
